Screening data as filed in PubChem.
TRPV1 potentiator = human TRPV1 potentiation. potentiation, % at 8.33 µM. 320,000 tested, 0.02% active. AID 540277. Q8NER1. TRPV1-expressing cells, Fluo-8 calcium influx, capsaicin EC20 potentiation; host cell line not named in the record; control for the full effect not named in the record; active means potentiation above 80%; inconclusive means 30% to 80%; inactive means below 30%; also: 0% is about no effect
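TRPV1-expressing cells were cultured overnight at 35.5C and loaded with Fluo-8 calcium dye for 40 to 90 min at room temperature. After a 10 s baseline, compound was added and calcium influx was read kinetically for 3 min (ex 480/em 520 nm).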
gsp agonist = gsp mutant agonism | gsp mutant cells, cAMP HTRF, 30 min; control for the full effect not named in the record | Potency, µM (doses to about 76.9 µM), without a hit: top-dose activation (cAMP increase), hits mostly activators | 340,000 tested, 0.13% active; active = well fitted activation curve with a large enough effect; inconclusive = small, poorly fitted or top-dose-only effect, or another doubt; inactive = no such curve, though single readings can be large or run the other way; cell line not stated here;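 also: phosphodiesterase inhibitor Ro 20-1724 added with compounds to block cAMP breakdown; potency is read from the fitted curve at half-maximal effect; nearly all actives have a fitted effect of over 60% in size; about a fifth of the inactives were tested at one dose only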
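Cells stably selected in G418 were plated at 2000/well, grown 16-24 hr, then given compounds in DMSO with the PDE inhibitor […] (300 uM solution added) for 30 min at 37C; cAMP was read by HTRF.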
Sfp PPTase inh = blocks B. subtilis Sfp PPTase activity. Q9F4F7. Biochemical Sfp PPTase activity, qHTS. Potency, µM, for the others: max response, negative = inhibition, hits mostly inhibitors. 310,000 tested, 3.5% active; active = well fitted inhibition curve with a large enough effect; inconclusive = small, poorly fitted or top-dose-only effect, or another doubt; inactive = no such curve, though single readings can be large or run the other way;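 also: the enzyme is Sfp with the accession as filed and its product quenches rhodamine fluorescence; potency is read from the fitted curve at half-maximal effect; 0% = enzyme reaction without inhibitor and -100% = no enzyme wells; top concentration of the series not given in the record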
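Reaction rates are the 30-min fluorescence difference (ex 525, em 598 nm) in wells containing 15 nM Sfp, 5 uM rhodamine-CoA and 12.5 uM BHQ-2-YbbR at pH 7.6 with 10 mM MgCl2.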
gsp antagonist = antagonizes gsp, the McCune-Albright syndrome mutation. AID 624288. 340,000 tested, 0.4% active. gsp-mutant cells, cAMP HTRF, 30 min; control for the full effect not named in the record. Potency, µM (top dose mostly 76.9 µM), without a hit: top-dose activity change, negative = inhibition, actives largely listed as inhibitors; active = falling curve of any shape with a large fitted effect; inconclusive = falling curve, mostly with a smaller effect; inactive = flat or rising curve; cell line not stated here;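 also: intracellular cAMP measured with PDE inhibitor Ro 20-1724 present during compound exposure; potency is read from the fitted curve at half-maximal effect; % is scaled to controls: 0 for no effect and ±100 for the full control effect; nearly all actives have a fitted effect of over 65% in size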
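Cells, 2000/well, grown 16–24 h in DMEM 10% FBS with 0.5 mg/ml G418, then compounds plus […] (300 uM addition stock), 30 min at 37C. cAMP read by HTRF (cAMP-d2 and anti-cAMP antibody-K in lysis buffer) after 30 min RT.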
ClpP mod = qHTS Assay for Activators of ClpP | ATP-dependent Clp protease proteolytic subunit (Bacillus subtilis (strain 168)), P80244 | purified B. subtilis ClpP, FRET peptide cleavage, 20 min | Potency, µM (titrated, usually from 57.5 µM), inactives show at the top dose activity change, negative = active | 340,000 tested, 1.9% active | AID 651965, 2013; active = well fitted falling curve with a large enough effect; inconclusive = small, poorly fitted or top-dose-only effect; inactive = no such curve, though single readings can be large or run the other way; also: potency is read from the fitted curve at half-maximal effect; the source files actives as falling curves though it sought activators and does not explain the sign; nearly all actives have a fitted effect of over 65% in size; many hits overshoot -100%
Target sequence (P80244 whole entry, looked up): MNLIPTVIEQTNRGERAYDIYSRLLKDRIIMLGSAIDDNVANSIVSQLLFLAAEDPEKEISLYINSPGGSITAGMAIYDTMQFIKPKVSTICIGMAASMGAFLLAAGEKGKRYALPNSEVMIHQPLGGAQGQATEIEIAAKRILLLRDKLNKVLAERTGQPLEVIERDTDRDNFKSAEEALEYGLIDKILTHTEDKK
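Buffer: 100 mM Tris/HCl pH8, 100 mM KCl, 0.05% low protease BSA, 2.5% glycerol, 0.01% Tween-20. ClpP 10 microg/mL final; 20 min RT; delta FRET normalized to ADEP and DMSO controls.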
TRPML1 inh = blocks the human TRPML1 channel; Q9GZU1; TRPML1-inducible cells, Ca2+ dye fluorescence, FDSS; stronger effect = lower value; inhibition of EC80 agonist-evoked calcium signal; activity change, negative = inhibition, % (concentration not given with the values); 390,000 tested, 0.02% active; AID 624415; in the data active means activity change below about -50%; inconclusive means about -30% to -50%; inactive means above about -30%;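 also: stimulus is agonist 54-4 at its EC80 concentration; % is scaled to controls: 0 for no effect and ±100 for the full control effect; compound concentration not given in the record; the text of the record puts the active cut at -80%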
Target sequence (Q9GZU1 whole entry, looked up): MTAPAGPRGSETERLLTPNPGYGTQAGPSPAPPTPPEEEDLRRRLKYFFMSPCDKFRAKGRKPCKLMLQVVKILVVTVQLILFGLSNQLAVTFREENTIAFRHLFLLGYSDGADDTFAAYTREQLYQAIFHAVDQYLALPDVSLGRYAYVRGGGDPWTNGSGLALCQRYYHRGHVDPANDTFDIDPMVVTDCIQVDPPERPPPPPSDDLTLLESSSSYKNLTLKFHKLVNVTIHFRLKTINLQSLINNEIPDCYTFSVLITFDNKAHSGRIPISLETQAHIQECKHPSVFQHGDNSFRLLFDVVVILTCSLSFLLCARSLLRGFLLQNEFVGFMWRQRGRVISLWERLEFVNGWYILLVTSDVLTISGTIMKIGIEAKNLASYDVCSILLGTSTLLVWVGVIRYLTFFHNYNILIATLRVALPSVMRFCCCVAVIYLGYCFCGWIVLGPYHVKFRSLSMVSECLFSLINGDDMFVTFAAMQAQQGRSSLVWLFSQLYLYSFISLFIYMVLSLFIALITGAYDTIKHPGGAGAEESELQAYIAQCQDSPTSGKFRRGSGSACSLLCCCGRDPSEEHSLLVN
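Tet-induced TRPML1-DL cells loaded with Ca8 no-wash calcium dye were read kinetically on FDSS. Compound addition was followed by EC80 agonist 54-4 (4 uM final); inhibition was read over 110 s.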
Menin-MLL FL inh = menin-MLL binding inhibition, fluorescein peptide; Fluorescence polarization, fluorescein-MLL peptide displacement from menin; FP activity change, % at 61.4 µM; 290,000 tested, under 10 active; AID 1766; inconclusive = falling polarisation curve, or a change in total fluorescence; inactive = total fluorescence flat and polarisation flat or rising; no compound was filed as active; the % refers to the polarisation; negative = inhibition;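 also: % of control where 0% means no effect; inhibitors lower the polarisation; unlabelled MLL peptide was the positive control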
Starred values were filed as active, the others as inactive; u = inconclusive; x = no result given; & = joins results of further samples; [ ] = dose if it differs, or a comment.

SMILES	TRPV1 potentiator	gsp agonist	Sfp PPTase inh	gsp antagonist	ClpP mod	TRPML1 inh	Menin-MLL FL inh
O=S(=O)(NCCSc1ccccc1)c1cccs1	0	-15%	15%	-6%	-2.1%	4	3.9
[N-]=[N+]=N[C@@H](CCN1CC[C@H](NC(=O)OCc2ccccc2)CCC1=O)c1ccccc1	-10	x	5%	-6%	-0.2%&-2.9%	-4	-2.7
O=C(CSc1nc2ccccc2o1)Nc1nncs1	9	-5%	11%	-1%	-1.8%	6	8.0
Cc1c(CCC(=O)NC2CC2)c(=O)oc2c(C)c(O)ccc12	1	x	16%	-5%	4.8%	x	3.3
CSc1nnc([C@H](C)NC(=O)OC(C)(C)C)o1	-7	-53%[inhibitor]	5%	10%	0.6%	-4	9.6
COc1cc(-c2nnc(NC(=O)C3=COCCO3)o2)cc(OC)c1OC	5	5%	x	-4%	3.3%	-5	x
CCC(=O)Nc1ccc(NC(=S)NC(=O)c2cc3ccccc3o2)cc1	-3	-11%	-13%	-11%	2.3%	-12	x
Cc1cc(C)c(C(=O)CSC2=NC(N)=C(C#N)C3(CCCCC3)C2C(N)=O)cc1C (stereo not given)	-3	27%	-20%	-6%	u	-9	-0.6
CC(C)c1ccc(CCNC(=O)CCNC(=O)c2ccc(Br)cc2)cc1	6	-2%	13%	-9%	-1.0%	-13	x
COc1ccc(-n2c(SCC(=O)N3CCCCC3)nc(O)cc2=O)cc1	-6	u	-22%	-19%	0.9%	-5	5.6
COc1ccc(Cc2nc3c4c(ncn3n2)Oc2ccc3ccccc3c2C4c2ccc(OC)c(OC)c2)cc1 (stereo not given)	-13	1%	11%	6%	13µM*	8	3.2
Cc1c(NC(=O)CN2CCCc3ccccc32)c(=O)n(-c2ccccc2)n1C	u	-1%	4%	3%	1.1%	-15	0.8
O=C(Cc1nn[nH]n1)Nc1cc(Cl)cc(Cl)c1	0	5%	6%	3%	-0.1%	-2	0.0
COc1ccc(NC(=O)C2=Cc3cccc(OC)c3OC2)cc1	-4	26%[15.4 µM]	11%	-28%	x	13	5.6
CC(C)(C)c1ccc(OCCC(=O)Nc2cccc(S(=O)(=O)N3CCCCC3)c2)cc1	-2	12%[15.4 µM]	16%	-21%	0.1%	42	7.6

Some of the entries so far, with values under each structure.
Results follow in this order: TRPV1 potentiator, gsp agonist, Sfp PPTase inh, gsp antagonist, ClpP mod, TRPML1 inh, Menin-MLL FL inh
- O=C(Cc1nn[nH]n1)Nc1cc(Cl)cc(Cl)c1
 : 0, 5%, 6%, 3%, -0.1%, -2, 0.0
- Cc1cc(C)c(C(=O)CSC2=NC(N)=C(C#N)C3(CCCCC3)C2C(N)=O)cc1C (stereo not given)
 : -3, 27%, -20%, -6%, u, -9, -0.6
- CC(C)c1ccc(CCNC(=O)CCNC(=O)c2ccc(Br)cc2)cc1
 : 6, -2%, 13%, -9%, -1.0%, -13, x

Next records.
SMILES	TRPV1 potentiator	gsp agonist	Sfp PPTase inh	gsp antagonist	ClpP mod	TRPML1 inh	Menin-MLL FL inh
COc1ccc2[nH]c3c(c2c1)CCN1C(=O)C(CC(=O)NC/C=C(\C)CCC=C(C)C)C[C@H](C(=O)N(C(C)C)C(C)C)[C@@]31C (stereo not given in full)	x	x	x	-6%	-4.6%	-7	x
CC(C)N(CCNC(=O)C1CCC(=O)N1Cc1ccc(F)cc1)Cc1ccccc1 (stereo not given)	4	-51%	12%	2%	-1.9%	12	-2.8
Cc1ccc(S(=O)(=O)N2CCOCC2)cc1NC(=O)CN1C(=O)NC(C)(c2ccc(Cl)cc2Cl)C1=O (stereo not given)	x	-7%	x	-4%	-0.2%	9	x
NC(=O)c1ccc(-n2nnnc2SCC(=O)Nc2ccccc2-c2ccccc2)cc1	-6	-41%[inhibitor]	1%	u	-2.0%	-4	0.0
Cn1c(SCC(=O)NC2CCCCC2)nnc1-c1cc2ccccc2o1	-11	0%	17%	-25%	1.2%	-3	-1.1
Cc1cc(-c2ccccc2)cc(-c2ccccc2)[n+]1C	-58	-13%[15.4 µM]	8%	16%	x	-3	1.3
O=C(CS(=O)(=O)c1cn(Cc2ccc(F)cc2)c2ccccc12)N1CCOCC1	-13	11%	6%	2%	0.8%	-2	-1.3
CCCCNC(=O)CCC(=O)Nc1ccc2nc(N3CCC(C)CC3)cc(C)c2c1	2	-22%	-1%	-12%	4.1%	-18	0.1
COc1cc2c(cc1OC)CN(C1CCCN(Cc3cccc(C(C)=O)c3)C1)CC2 (stereo not given)	x	u	x	1%	3.8%	-6	x
CN(C)S(=O)(=O)c1ccc(C(=O)NCCOc2ccccc2)cc1	2	-2%	7%	-7%	0.5%	-7	0.9
O=C(Nc1cc(C(=O)N2CCN(c3ccccc3O)CC2)ccc1Cl)c1cccs1	9	-50%[inhibitor]	x	-9%	-2.7%	15	x
CC(=O)Nc1ccc(N2CCOCC2)c(Cl)c1	3	-57%[inhibitor]	27%	9%	-0.8%	17	-0.2
COc1ccc(CCCc2nnc(SCC(=O)NN)o2)cc1	-10	-1%[15.4 µM]	4%	1%	x	5	0.6
O=C(c1cc(-c2ccc(Br)cc2)on1)N1CCCCCC1	0	-33%[inhibitor]	11%	6%	x	-6	1.5
CCCCOc1cccc(NC(=O)CSc2nncn2C)c1	2	25%[15.4 µM]	-9%	-4%	1.2%	7	2.7
O=C(Nc1ccccc1N1CCOCC1)c1ccc(N2CCOCC2)c([N+](=O)[O-])c1	-4	-21%[15.4 µM]	11%	-19%	x	-11	-6.3
O=C(N/C(=C\c1ccco1)C(=O)N1CCCC1)c1ccccc1	-8	13%[15.4 µM]	-11%	-4%	x	9	12
O=C(CSc1nc2ccccc2s1)Nc1ccc2c(c1)oc1ccccc12	4	10%	-1%	-8%	-12%	-7	1.5
CCCN(Cc1ccccc1)C(=S)NC(=O)c1ccccc1[N+](=O)[O-]	-23	3%[15.4 µM]	18%	-3%	x	-13	-2.0
CC(=O)NCC(=O)OCc1ccc([N+](=O)[O-])cc1	4	-45%[inhibitor]	5%	3%	-3.8%	1	3.1
OC(COc1ccccc1Cl)CN1CCN(CC(O)COc2ccccc2Cl)CC1 (stereo not given)	-12	-37%[inhibitor]	-6%	13%	-4.2%	50	3.1
COc1ccc(CN2CC(C(=O)NC3CCCCC3)CC2=O)cc1 (stereo not given)	2	u	8%	5%	0.2%	36	x
C[C@@H]1CN([C@@H](C)CO)S(=O)(=O)c2ccc(Br)cc2O[C@H]1CN(C)Cc1ccccc1F	x	-70%[inhibitor]	x	x	-1.5%	21	x
COc1ccccc1NC(=O)C(CC=C(Cl)Cl)C(C)=O (stereo not given)	11	3%	8%	1%	-0.6%	-12	1.2
C=CCOc1ccc(/C=C/C(=O)OCc2csc(CC(=O)Nc3ccccc3C)n2)cc1	2	-9%	x	-19%	30%	-2	x
Cc1cc(/C=C(/C#N)C(=O)Nc2ccc(Cl)cc2)c(C)n1-c1cccnc1	14	-26%	-6%	u	18%	5	-0.6
Cc1ccc2c(c1)[C@H]1[C@H](CO2)[C@H](c2ccccc2)[C@]2(C)C(=O)N(Cc3ccccc3)CC(=O)N12	x	-50%[inhibitor]	x	-23%	-2.4%	32	x
COc1ccc(CNC(=O)CN(C)Cc2ccccc2F)cc1OC	-32	-1%[15.4 µM]	5%	5%	x	10	-0.9
CCS(=O)(=O)N1CCCC(C(=O)NCCc2ccc(OC)c(OC)c2)C1 (stereo not given)	19	0%	0%	0%	-1.1%	-24	3.8
COc1ccccc1NC(=O)c1ccccc1S(=O)(=O)c1ccc([N+](=O)[O-])cc1	1	-2%	3%	-11%	-1.2%	38	3.3
CCC(=O)c1cn(CC(=O)Nc2ccccc2)c2ccccc12	25	-8%[15.4 µM]	10%	-3%	1.4%	22	0.1
CCOC(=O)c1ccc(N2CCOCC2)c(NS(=O)(=O)c2ccc(F)cc2)c1	0	5%[15.4 µM]	2%	-7%	-0.6%	28	x
CCc1ccc(C2=NN(C(C)=O)C(c3ccco3)C2)cc1 (stereo not given)	-18	-3%	25µM*	4%	-4.1%	-5	-1.2
C=CCNC(=O)c1ccccc1NC(=O)Cc1ccccc1[N+](=O)[O-]	2	-9%[15.4 µM]	9%	6%	0.6%	4	4.6
COc1ccc(C(=O)Nc2c(N)nc(SCC(=O)N3CCC(C)CC3)[nH]c2=O)cc1	2	-8%	1%	3%	-1.8%	2	x
NC(=O)c1ccc(NC(=O)Cc2cccs2)cc1	13	u	11%	9%	x	-4	18
CCOC(=O)c1ccc[n+](CC(=O)c2ccc(NC(=O)c3ccccc3)cc2)c1	11	-17%	22%	-29%	-0.2%	-5	6.3
O=C(Nc1cnc2sccn2c1=O)c1ccc(Cl)cc1Cl	3	u	-2%	-1%	-3.8%	-7	1.2
CCN(CCNC(=O)c1ccc(C#N)cc1)c1cccc(C)c1	-5	-8%[15.4 µM]	15%	-11%	x	4	-4.7
Cc1nc2c(=O)n(C)c(=O)[nH]c2n1Cc1ccccc1	-1	1%	-7%	5%	28µM*	-4	0.0
COc1ccccc1[C@@H]1C(c2ccc(F)cc2)=NN(c2ccccc2)[C@H]1C(=O)N1CCOC1=O	7	x	4%&5%	-17%	3.5%	-3	1.7&3.4
CCn1nc(C(=O)Nc2nc(-c3ccccn3)cs2)c2ccccc2c1=O	14	2%	x	1%	-1.2%	-13	x
COc1ccc(C(=O)COC(=O)CCn2c(C)csc2=O)c(OC)c1	x	3%	x	x	-0.8%	-14	x
COc1ccc(C(=O)CCN2CCN(c3ccccc3OC)CC2)cc1	8	-16%[15.4 µM]	50µM*	-1%	x	-8	-0.1
